Source: PubChem (several laboratories)
YopH inh = YopH tyrosine phosphatase inhibitors, primary screen, biochemical, fluorescence Ex485/Em525; YopH tyrosine phosphatase [Yersinia enterocolitica]; inhibition, %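 (about 10 µM by stock and volumes)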; 140,000 tested, 0.16% active; AID 898, 2007;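 active = inhibition of 50% or more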;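 note: controls were vehicle for no effect and minimum signal wells for full effect; inactives centre near -20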
Mtb betalactam = beta-lactam sensitization of Mtb H37Rv, H37Rv; M. tuberculosis H37Rv growth with meropenem, percent inhibition; hits of this screen are not shown here; 330,000 tested, 0.27% active; inhibition, % at 25 µM;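 active = about 74% or more and at least 40 points above the plate without the antibiotic, then above 30% in a dose series; inconclusive = first-round hits that could not be retested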;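 note: growth measured after seven days incubation then overnight dye step; 0% = bacteria only wells and 100% = bacteria with antibiotic; twin plates without the antibiotic show which effects depend on it; some results filed as inactive read as strong as hits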
RecA splice inh = Mtb RecA intein splicing inhibitors, primary screen, biochemical, fluorescence, HTS. Protein RecA (Mycobacterium tuberculosis (strain ATCC 25618 / H37Rv)), P9WHJ3. cell-free RecA intein splicing. inhibition, %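 (about 9 µM by stock and volumes)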. 290,000 tested, 0.75% active. AID 2221, 2009; in the data active = inhibition above about 30%; inconclusive = no clear call, values can overlap the other calls;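 note: 0% = vehicle wells and 100% = reference inhibitor control wells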
Target sequence (P9WHJ3 whole entry, looked up, canonical isoform): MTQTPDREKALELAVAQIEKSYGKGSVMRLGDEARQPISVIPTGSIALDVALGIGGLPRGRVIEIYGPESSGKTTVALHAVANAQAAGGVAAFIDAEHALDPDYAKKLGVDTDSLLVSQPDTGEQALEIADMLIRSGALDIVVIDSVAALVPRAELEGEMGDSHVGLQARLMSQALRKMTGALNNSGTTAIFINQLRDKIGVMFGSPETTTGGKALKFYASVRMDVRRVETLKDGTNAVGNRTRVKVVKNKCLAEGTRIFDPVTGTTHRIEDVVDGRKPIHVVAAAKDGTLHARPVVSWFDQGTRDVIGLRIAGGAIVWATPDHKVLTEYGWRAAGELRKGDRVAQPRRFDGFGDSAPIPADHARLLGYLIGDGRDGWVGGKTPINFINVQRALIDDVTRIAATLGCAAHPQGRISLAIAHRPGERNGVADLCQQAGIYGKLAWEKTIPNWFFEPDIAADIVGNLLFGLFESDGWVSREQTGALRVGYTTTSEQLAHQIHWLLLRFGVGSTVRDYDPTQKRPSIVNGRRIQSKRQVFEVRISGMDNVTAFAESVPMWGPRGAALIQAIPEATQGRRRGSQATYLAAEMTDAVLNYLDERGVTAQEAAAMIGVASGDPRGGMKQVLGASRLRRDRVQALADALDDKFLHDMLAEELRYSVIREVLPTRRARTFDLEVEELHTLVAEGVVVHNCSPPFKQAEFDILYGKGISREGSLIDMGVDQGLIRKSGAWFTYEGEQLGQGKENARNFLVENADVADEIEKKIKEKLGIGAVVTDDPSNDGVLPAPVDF
Arbovirus anti = antivirals against arbovirus infection, primary screen, cell-based, full library, 10K replicate subset; 200,000 tested, 0.37% active; arbovirus infection cell-based antiviral screen; AID 1251, 2008; inhibition, % at 10 µM;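 active = inhibition from about 30%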;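 note: bluetongue infection of BSR cells; cell survival read as ATP light after 72 h; 0% = infected wells without compound and 100% = uninfected wells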
Mtb growth = M. tuberculosis H37Rv growth inhibitors, H37Rv strain (AID 1626) | M. tuberculosis H37Rv growth inhibition; higher % means a stronger effect | inhibition, % at 10 µM, or IC50 in µM where a hit was titrated | 220,000 tested, 0.95% active;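 active = confirmed in a dose series; inconclusive = inhibition above 80% but not taken into the dose series; inactive = below 80% or under 30% at every dose of the series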;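 note: bacteria incubated seven days before Alamar blue readout; 0% = bacteria only wells and 100% = bacteria with antibiotic wells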
Numbers without * were called inactive; ? = inconclusive; / = no result given; & = joins results of further samples. Only part of the results is shown, so the mix of outcomes need not match the whole.

The line under a structure holds: YopH inh, Mtb betalactam, RecA splice inh, Arbovirus anti, Mtb growth
> COc1ccc(C(=O)Nc2ccccc2C(=O)N2CCCCCC2)cc1
 : /, 1, 1.8, /, /
> COc1ccccc1Oc1ccc2c(c1)C(=O)N(c1cccc(O)c1)C2=O
 : -25, -3, 4.0, 12, -1%
> Cc1ccc(C(C)C)c(OCc2ccc(C(=O)N/N=C/c3ccc(C(=O)O)cc3)cc2)c1
 : /, /, 2.2, /, -4%
> Cc1ccc(C)c(NC2=NC3(CCCCC3)N=C(N)N2)c1
 : -9, -11, 1.4, 1, -2%
> COc1ccccc1N(CC(=O)NCc1cccnc1)S(C)(=O)=O
 : -8, 4, /, 9, 0%
> CCCNC(=O)N1CCC2(CC1)OCCO2
 : /, 1, -0.7, -4, -8%
> CN(Cc1nnc(SCC(=O)NCCc2ccccc2)n1C)S(=O)(=O)c1ccccc1
 : -22, -18, -0.6, 1, -7%
> CC(=O)/C(N=Nc1cc2c(cc1[N+](=O)[O-])OCCO2)=C(\C)O
 : /, 0, 1.0, -3, 1%
> Cc1cc(C(=O)OC(C)C(=O)Nc2nc(-c3ccccc3)cs2)c(C)o1 (stereo not drawn)
 : -1, 23, 7.6, 11, 6%
> CC(C)CCNC(=O)c1ccc(C2SCC(=O)N2Cc2ccco2)cc1 (stereo not drawn)
 : -29, -9, 6.0, -4, -1%
> Cc1cc(NS(=O)(=O)c2ccc(NC(=O)C(F)(F)F)cc2)nc(C)n1
 : /, 4, -3.7, /, /
> O=C(NCC1CCN(Cc2ccccc2F)CC1)Nc1cc(F)ccc1F
 : /, 2, 0.3, /, /
> COc1cc(CNc2ccc3[nH]c(=O)[nH]c3c2)ccc1OCc1ccccc1
 : /, 4, -2.7, /, /
> COc1ccc([N+](=O)[O-])cc1N(CC(=O)NCC1CCCO1)S(C)(=O)=O (stereo not drawn)
 : -7, -5, -4.2, 9, 7%
> CCOC(=O)c1c(C)n(C)c2cc([N+](=O)[O-])c(O)c([N+](=O)[O-])c12
 : /, 1, -4.0, /, 6%

Record cards, as listed above:
COc1ccccc1N(CC(=O)NCc1cccnc1)S(C)(=O)=O reads YopH inh = -8; Mtb betalactam = 4; RecA splice inh = /; Arbovirus anti = 9; Mtb growth = 0%
O=C(NCC1CCN(Cc2ccccc2F)CC1)Nc1cc(F)ccc1F reads YopH inh = /; Mtb betalactam = 2; RecA splice inh = 0.3; Arbovirus anti = /; Mtb growth = /

The listing continues:
The line under a structure holds: YopH inh, Mtb betalactam, RecA splice inh, Arbovirus anti, Mtb growth
> Cc1ccc(CN=C2Nc3ccccc3CS2)cc1
 : -26, 9, 3.1, 10, 0%
> COc1cc(-c2nc(CN(C)Cc3nnc(C)o3)c(C)o2)ccc1F
 : /, -5, -2.2, -1, -6%
> CCc1noc(C)c1C(=O)Nc1nc(-c2ccc(Cl)cc2Cl)cs1
 : -34, 62, -1.0, -12, 12%
> COc1ccc(Br)cc1C(=O)N/N=C/c1ccc([N+](=O)[O-])cc1
 : /, 4, -0.5, -5, 2%
> CC1(C)CC(NCc2cccc([N+](=O)[O-])c2)CC(C)(C)N1
 : /, -6, 0.5, /, /
> C#CCSC1=C(C#N)C(c2cccs2)C(C(=O)OCC)=C(C)N1 (stereo not drawn)
 : -28, -5, 4.9, 7, 4%
> O=C(Nc1cnn(Cc2ccccc2)c1)c1nc2ncccn2n1
 : 1, -1, 1.2, -22, -3%
> CC(OC(=O)Cc1ccc(Br)cc1)C(=O)NC1CCCCC1C (stereo not drawn)
 : /, -1, -0.2, /, /
> CCCOP(=O)(c1ccc(N(C)C)cc1)C(O)c1ccc(Cl)cc1Cl (stereo not drawn)
 : /, 10, 7.0, /, /
> CCOc1ccc(OCCC(=O)OCC(=O)NNC(=O)c2ccccc2)cc1
 : /, 0, -3.4, /, /
> CCOC(=O)c1nnn(CC(=O)Nc2cccc(OC)c2)c1C(=O)OCC
 : -17, -3, 3.2, 8, -11%
> Cn1c(SCC(=O)NC(c2ccccc2)c2ccccc2)nnc1-c1cccs1
 : 4, 1, 0.7, 0, 9%
> Cc1cc(C)n2nc(CNS(=O)(=O)c3ccc(F)cc3)nc2n1
 : /, -2, 0.2, /, /
> O=C1CC(N2CCN(c3cccc(C(F)(F)F)c3)CC2)C(=O)N1c1ccccc1 (stereo not drawn)
 : 9, -12, -0.4, 1, -4%
> CC(C)c1ccc(NC2CCCN(C(=O)CSc3nncn3C)C2)cc1 (stereo not drawn)
 : /, 2, 0.8, /, /

Further results:
The line under a structure holds: YopH inh, Mtb betalactam, RecA splice inh, Arbovirus anti, Mtb growth
> Cc1c(CCC(=O)NCCCn2ccnc2)c(=O)oc2c(C)c3occ(C(C)(C)C)c3cc12
 : /, 76, 5.5, /, /
> NC(=O)CC(NC(=O)Cc1cccc2ccccc12)c1ccc(NCc2ccc(F)cc2)c([N+](=O)[O-])c1 (stereo not drawn)
 : /, -15, 1.8, /, -14%
> O=C1COc2ccc(C(=O)COc3ccc([N+](=O)[O-])cc3)cc2N1
 : /, 3, -1.5, /, -12%
> O=C(C1CC1)N1CCc2cc(S(=O)(=O)NCC3COc4ccccc4O3)ccc21 (stereo not drawn)
 : -42, -6, -3.6, 4, /
> O=C(CCn1c(=S)[nH]c2ccccc2c1=O)Nc1ccc(F)cc1
 : /, 3, -1.2, /, /
> O=C(NC1CCCN(Cc2ccc(Cl)cc2)C1)C1CCC1 (stereo not drawn)
 : /, -6, -0.9, /, /
> COc1ccc(C(C)=O)cc1CC(=O)N(Cc1ccccc1)c1ccccc1
 : /, 1, -1.6, /, /
> Cc1nc2sc(C(c3cccc(F)c3)N3CC(C)OC(C)C3)c(O)n2n1 (stereo not drawn)
 : -31, -3, -1.5, 3, /
> CCOc1ccc(NS(=O)(=O)c2ccc(C(=O)NC3CCN(Cc4ccccc4)CC3)cc2)cc1
 : /, 2, -0.9, /, /
> CCCSc1cc(NCCOC(C)=O)c([N+](=O)[O-])c2nonc12
 : 3, 26, 7.7, -6, 3%
> S=c1[nH]nc(C2CCCCC2)n1Cc1ccccc1
 : /, 2, -0.3, -14, 1%
> COc1c(C)oc2cc(O)ccc2c1=O
 : -27, -12, -5.5, 6, 8%
> Cn1nc(CC(=O)NC2CCCCC2)c2ccccc2c1=O
 : -39, -3, -0.5, 8, -6%
> CCN1CCN(c2ccc([N+](=O)[O-])cc2C(=O)c2ccc(Cl)cc2)CC1
 : -36, -4, 2.3, -20, 14%
> COc1ccc2c3c1O[C@H]1C[C@@H](O)C=C[C@@]31CCN(C)C2
 : /, 7, -2.2, -2, -9%&3%

The listing continues:
The line under a structure holds: YopH inh, Mtb betalactam, RecA splice inh, Arbovirus anti, Mtb growth
> CCC(Sc1nnc(-c2ccco2)n1C)C(=O)Nc1nnc(C)s1 (stereo not drawn)
 : /, -1, -0.5, /, /
> Cc1cc2c(Nc3cccc(O)c3)ncnc2s1
 : /, 30, -1.0, /, /
> CC(OC(=O)/C=C/c1ccc(Br)cc1)C(=O)N1CCOCC1 (stereo not drawn)
 : /, -11, 0.1, /, /
> O=C(CC1C(=O)NCCN1Cc1c(F)cccc1Cl)NC1CCCC1 (stereo not drawn)
 : /, 3, 0.5, 4, -5%
> O=C(COc1cccnc1[N+](=O)[O-])NCc1cccs1
 : /, -8, 0.6, 6, 2%
> COc1ccccc1NC(=O)c1ccc2[nH]c(C)c(C)c2c1
 : /, 5, 0.6, /, /
> CCOC(=O)c1c(NC(=S)Nc2ccc(F)cc2)sc2c1CCC2
 : -6, 15, -1.3, -4, -6%
> Cc1sc(NC(=O)CN2CCN(c3ccccn3)CC2)c(C#N)c1C
 : -25, -4, -1.5, -1, -12%
> NC(=O)/C(=C\c1cccnc1)NC(=O)c1ccccc1
 : /, 1, -3.6, 7, -1%
> Cc1ccc(N(C(=O)c2ccco2)C(C(=O)NC2CCCC2)c2cccnc2)cc1 (stereo not drawn)
 : /, 6, 1.7, /, /
> O=C(Nc1nnc(COc2ccccc2)s1)C1CCN(S(=O)(=O)c2ccc(Cl)cc2)CC1
 : -1, -12, -0.4, 5, 4%
> Cc1occc1C(=O)N/N=C/C1=C(N2CCOCC2)C(=C\c2ccc(Cl)cc2Cl)/CC1
 : -25, 9, -7.2, -6, 3%
> CC(C)CS(=O)(=O)C1=NSC2=NC(=O)/C(=C\c3ccc(OC(=O)c4ccco4)cc3)C(=N)N21
 : /, 98, 41*, /, /
> Cc1ccc(NC(=O)Nc2cc(C)on2)cc1
 : /, 10, -4.8, -2, -1%
> O=C(NCCO)C(c1ccccc1)c1ccccc1
 : -6, -5, 0.4, 0, -7%

Further results follow:
The line under a structure holds: YopH inh, Mtb betalactam, RecA splice inh, Arbovirus anti, Mtb growth
> COc1ccccc1CN1CC(C(=O)N2CCC(OC)CC2)CCC1=O (stereo not drawn)
 : /, -4, -0.9, /, /
> S=C(Nc1ccc(Cl)c(Cl)c1)NC1CCCCC1
 : -31, 87, 8.1, -34, ?
> Cc1c(/C=N/NC(=O)CNc2ccccc2)c2ccccn2c1C(=O)c1ccc(Cl)cc1
 : -22, 13, -3.0, -2, 18%
> Nc1c(N(CCC2=CCCCC2)C(=O)C2CC2)c(=O)[nH]c(=O)n1Cc1ccccc1
 : /, -6, 0.4, /, /
> Cn1c(O)c(Cc2ccc(OCc3ccccc3)cc2)c(=O)n(C)c1=O
 : /, -9, 2.0, /, /
> CC(C)CN(C(=O)COC(=O)C12CC3CC(CC(O)(C3)C1)C2)C1CCS(=O)(=O)C1 (stereo not drawn)
 : -40, -1, /, 16, -2%
> CC1C(=O)N2CCCc3cc(S(=O)(=O)NCCc4ccccc4)cc1c32 (stereo not drawn)
 : /, -1, -2.5, /, /
> Cc1ccc(C(=O)OCC(=O)Nc2ccc(S(N)(=O)=O)cc2)c(O)c1
 : /, -3, -1.0, /, -4%
> COc1ccc(N(C)C2=NS(=O)(=O)c3ccccc32)cc1
 : 10, 0, -0.7, -17, -6%
> O=C(NCC(=O)N(c1cccnc1)C(C(=O)NC1CCCCC1)c1ccccc1F)c1ccco1 (stereo not drawn)
 : /, -5, 0.2, /, /
> CC(C)C[C@H](NC(=O)c1nc[nH]c1C(=O)N1CCN(C(=O)OC(C)(C)C)CC1)C(=O)OCc1ccccc1
 : /, /, -3.1, 2, -3%
> Cc1c(Cl)ccc2c(C(=O)NC(C)c3ccncc3)cc(-c3ccncc3)nc12 (stereo not drawn)
 : /, 99, 0.6, -3, ?
> COC1C(OC(=O)c2ccc(C)[nH]2)C(O)C(Oc2ccc3c(O)c(NC(=O)c4ccc(O)c(CC=C(C)C)c4)c(=O)oc3c2Cl)OC1(C)C (stereo not drawn)
 : /, -5, /, /, ?
> CCOC(=O)C1CCN(c2cc3c(cc2NC(=O)c2ccccc2)n(C)c(=O)n3C)CC1
 : /, 0, 0.1, /, /
> COc1ccc2[nH]c(C(=O)NCCN3CCOCC3)cc2c1
 : /, 2, 1.6, /, -10%

The list goes on:
The line under a structure holds: YopH inh, Mtb betalactam, RecA splice inh, Arbovirus anti, Mtb growth
> CCNc1nc(OCC)nc(N2CCC(Cc3ccccc3)CC2)n1
 : -41, 1, 5.3, -7, 6%
> Oc1ccccc1/C=N/n1c2ccccc2c2ccccc21
 : -34, 9, 3.1, 10, -4%
> Cc1ccc(-c2nc3c(c(=O)c4ccccc4n3C)c(=O)n2Cc2ccco2)cc1
 : /, 100, 7.2, /, 21%
> CN(C(=O)CSc1nnc(N)s1)C1CCCCC1
 : /, 5, -3.9, /, /
> Cc1ccc(C(=O)C[n+]2cc(-c3ccccc3)n3c2CCCCC3)cc1
 : -12&-29, ?, 0.8&0.4, 15&6, 9%&12%
> CN(C)c1ccc(C(CNC(=O)Cc2cccc3ccccc23)N(C)C)cc1 (stereo not drawn)
 : /, 2, -1.9, /, /
> CN(c1ccccc1)S(=O)(=O)c1ccc(C(=O)Nc2nnc(C3=COCCO3)o2)cc1
 : /, 46, 3.9, 5, ?
> CCOC(=O)CNC(=O)c1ccc(C#CC2(O)CCCCC2)cc1
 : -30, 8, -2.2, 3, 4%
> Cc1c(-n2cc(C(=O)c3cc(F)ccc3O)cc(C#N)c2=O)c(=O)n(-c2ccccc2)n1C
 : /, -14, 2.7, -6, 5%
> CCOC(=O)c1c(NC(=S)N2CCOCC2)sc2c1CCN(C(=O)OCC)C2
 : /, 66, 39*, /, 59%
> CS(=O)(=O)NCCSCc1ccccc1
 : -13, -1, 0.7, 7, -4%
> CC[C@H](CO)Nc1nc(Nc2cccc(Cl)c2)c2ncn(C(C)C)c2n1
 : /, 98, -1.6, /, 15%
